Mtb bLac sens = beta-lactam sensitization of Mtb H37Rv; M. tuberculosis H37Rv growth with meropenem, percent inhibition; hits of this screen are not shown here; inhibition, % at 25 µM; 330,000 compounds, 0.27% hits; AID 434955;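 active means about 74% or more and at least 40 points above the plate without the antibiotic, then above 30% in a dose series; inconclusive means first-round hits that could not be retested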;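 further: growth measured after seven days incubation then overnight dye step; 0% = bacteria only wells and 100% = bacteria with antibiotic; twin plates without the antibiotic show which effects depend on it; some results filed as inactive read as strong as hits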
* hit, by the source's call; u = inconclusive. The list is partial; rates above refer to the full screens.

SMILES	Mtb bLac sens
COc1cc2c(cc1OC)C(Cc1ccc(O)c(Oc3ccc(C[C@H]4c5cc(OC)c(OC)cc5CCN4C)cc3)c1)N(C)CC2 (stereo not given in full)	8.9
Cc1ccc(CN(C(=O)c2csnn2)C(C(=O)NC2CCCC2)c2ccco2)cc1 (stereo not given)	-5.8
Brc1cc(Br)c(Oc2cc(Br)c(Br)cc2Br)cc1Br	4.4
COc1ccc(C(=O)COC(=O)c2ccc([N+](=O)[O-])s2)cc1OC	97.8
Cc1c(Cl)cccc1NC(=O)CSc1nnnn1C	4.8
CCOc1ccc(NC(=O)CN(C)C(=O)CCC2CCCCC2)cc1OCC	-5.9
CCN(CC(=O)NCc1ccc(F)cc1)S(=O)(=O)c1ccc(Cl)s1	-4.6
O=C1CCc2cc(S(=O)(=O)Nc3ccccc3F)ccc2N1	2.5
COc1ccc(S(=O)(=O)N(C)CC(=O)N2CCCCCC2)cc1	-8.6
COc1ccccc1NC(=O)COC(=O)c1ccc(S(=O)(=O)N2CCCCCC2)cc1	-8.5
COc1cc(OC)cc(-c2cc3ncccc3cn2)c1	5.9
CCOc1cc(C(=O)NCC(C)(C)CNC(=O)c2cc(OCC)c(OCC)c(OCC)c2)cc(OCC)c1OCC	14.8
CCOc1ccc2c(c1)C(C)=CC(C)(C)N2	3.9
CCOC(=O)c1sc(NC(=O)CCc2ccccc2)nc1C	4.8
C#CCOCCOCCOCCNc1nc(N2CCN(C(=O)CCCCCCCCCCNC(=O)[C@@H](CCSC)n3cc(CCO)nn3)CC2)nc(N2CCN(C(=O)CCCCCCCCCCNC(=O)[C@@H]([C@H](C)O)n3cc(C)nn3)CC2)n1	40.8
CC(OC(=O)c1ccc(Cl)c([N+](=O)[O-])c1)C(=O)N1CCN(Cc2ccccc2)CC1 (stereo not given)	-3.0
COc1ccc(-c2cn(CCC(=O)O)c(-c3ccc(Cl)nc3)n2)cc1	-3.3
CC1(C2CC2)NC(=O)N(CC(=O)Nc2ccc(C(F)(F)F)cc2)C1=O (stereo not given)	1.4
C[C@H](CO)N1C[C@H](C)[C@@H](CN(C)C(=O)NC2CCCCC2)Oc2ccc(NC(=O)Nc3ccccc3)cc2C1=O	10.8
COc1cccc(OCc2cc(C(=O)N(C)Cc3nc(C)cs3)no2)c1	u
C[C@H](CO)N1C[C@H](C)[C@@H](CN(C)Cc2ccccc2)Oc2ccc(NC(=O)Cn3cnnn3)cc2C1=O	-6.2
Cc1cccc(N2N=C(C(=O)Nc3ccc(Cl)c(S(=O)(=O)N4CCOCC4)c3)CCC2=O)c1	2.6
COC(=O)C1=C(c2ccc(-c3ccccc3)c(F)c2)C[C@@H]2CC[C@H]1N2C(=O)NCCc1ccccc1	-8.2
Cc1ccc(-c2cc(C(=O)NCC(c3ccccc3)N(C)C)c3ccccc3n2)o1 (stereo not given)	-10.7
COc1ccccc1NS(=O)(=O)c1cc(N)ccc1N1CCOCC1	1.9
O=C(OCC(=O)N1CCCC1)c1ccc(Cl)nc1	6.0
CC(=O)Nc1cccc(NCC(=O)Nc2cc(S(=O)(=O)N3CCCCC3)ccc2Cl)c1	-4.9
Cc1cc(C(=O)OCC(=O)N2CCOCC2)c(C)n1-c1ccccc1	4.1
CN(C)c1ccc(S(=O)(=O)NCC(=O)OCC(=O)c2ccc[nH]2)cc1[N+](=O)[O-]	-13.2
COc1ccc(CCN2CC(C(=O)OCC(=O)NC(C)c3cccc(Cl)c3)CC2=O)cc1OC (stereo not given)	-8.2
C[C@H]1CN([C@@H](C)CO)C(=O)c2cccc(NC(=O)C3CC3)c2O[C@H]1CN(C)CC1CCCCC1	3.8
COc1ccc(NC(=O)[C@@H](NS(=O)(=O)c2cccc(Cl)c2)C(C)C)cc1S(=O)(=O)N1CCOCC1	2.3
O=C(NC(=S)N1CCCCC1CO)c1cccs1 (stereo not given)	-4.5
O=S(=O)(c1ccccc1F)N1CCN(Cc2cc3c(cc2O)OCO3)CC1	-5.0
CC(C)n1ncc2c(C(=O)Nc3cccc(S(=O)(=O)N(C)C)c3)cc(C3CC3)nc21	59.6
COc1ccc(CN(C)CC(=O)NCC(=O)Nc2c(C)cccc2C)cc1	1.2
CCOC(=O)C1CCN(C(=O)CN2C(=O)NC3(CCCCC3)C2=O)CC1	-3.1
COc1cccc(C(=O)OCC(=O)c2ccc(Br)s2)c1	10.3
Cc1nc(NC(=O)COC(=O)C2CC3CCCC(C2)C3=O)c(Cl)cc1Cl (stereo not given)	-7.4
O=C1CC(C(=O)N2CCCc3ccccc32)CN1c1ccc(Cl)cc1 (stereo not given)	-25.9
CCN(CC(=O)NNC(=O)c1ccccc1)Cc1ccc(OC)c(F)c1	0.1
CC1CCCCC12NC(=O)N(CC(=O)N1CCN(c3ncccn3)CC1)C2=O (stereo not given)	4.7
O=C1OC[C@@H]2CCCN2C(=O)[C@@H](CC(=O)N(CCO)Cc2ccccc2)C/C=C\C[C@@H]1Cc1ccc(F)cc1	-7.0
OCC[C@H]1C[C@H](O)[C@@H](O)[C@]2(CCCc3ccccc3O2)O1	-6.6
CN(CC(=O)Nc1ccccc1Cl)C1CCS(=O)(=O)C1 (stereo not given)	-13.1
Cc1nnc(Nc2ccc(S(N)(=O)=O)cc2)c2ccccc12	-0.2
COc1ccccc1NC(=O)c1cccc(S(=O)(=O)N2CCN(c3ccccc3)CC2)c1	-10.4
CC1CCCC(NC(=O)c2ccc3c(c2)OCCO3)C1C (stereo not given)	1.6
CC(=O)Nc1cccc(C(=O)NNC(=O)c2ccc(-n3cnnn3)cc2)c1	-12.4
CCCCOCCOCCOCCCC	4.8
CC(C)C[C@@H]1CN=C(N)N1C[C@@H]1CCCN1C[C@H](C)N1C[C@@H](Cc2ccccc2)N(CCCC2CCCC2)C1=N	99.2
Cc1ccc(CNC(=O)C2CCN(S(=O)(=O)c3ccc(Br)s3)CC2)cc1	-0.7
O=S(=O)(Nc1ccc(S(=O)(=O)Nc2ncccn2)cc1)c1ccc(Cl)cc1	11.1
Cc1noc(C)c1NC(=O)N(C)C[C@@H]1Oc2ccc(NC(=O)CCC(F)(F)F)cc2CC(=O)N([C@@H](C)CO)C[C@@H]1C	-1.9
Cc1cccnc1NC(=O)CCC(=O)c1cccs1	2.8
CC(C)(C)OC(=O)NCc1ccc(NC(=O)c2nc[nH]c2C(=O)NCCCNC(=O)c2[nH]cnc2C(=O)Nc2ccc(CNC(=O)OC(C)(C)C)cc2)cc1	9.3
Cc1noc(NS(=O)(=O)c2ccc(NS(=O)(=O)c3ccc(Cl)cc3)cc2)c1C	-5.8
Cc1cnc(NC(=O)c2ccc3c(c2)OCCO3)s1	-2.7
O=C(COC(=O)c1ccco1)NC1CCCc2ccccc21 (stereo not given)	-0.5
COc1ccc(-n2nnnc2SCC(=O)NC2CC2)cc1	-6.1

4 compounds from above, sorted by length of the SMILES, descending.
SMILES	Mtb bLac sens
CC(C)C[C@@H]1CN=C(N)N1C[C@@H]1CCCN1C[C@H](C)N1C[C@@H](Cc2ccccc2)N(CCCC2CCCC2)C1=N	99.2
Cc1noc(NS(=O)(=O)c2ccc(NS(=O)(=O)c3ccc(Cl)cc3)cc2)c1C	-5.8
Cc1ccc(CNC(=O)C2CCN(S(=O)(=O)c3ccc(Br)s3)CC2)cc1	-0.7
Cc1cnc(NC(=O)c2ccc3c(c2)OCCO3)s1	-2.7

Following part
SMILES	Mtb bLac sens
C[C@]12CC[C@H](OC(=O)CCC(=O)O)CC1=CCC1C2CC[C@@]2(C)C1CC[C@@H]2N (stereo not given in full)	-1.5
Cc1ccc(C(=O)COC(=O)COc2ccccc2[N+](=O)[O-])s1	-8.4
COc1ccccc1C(C)NC(=O)c1cc(S(=O)(=O)N2CCCCC2)ccc1C (stereo not given)	-5.8
Cc1cc(C(=O)NNC(=O)c2ccccc2F)c2ccccc2n1	-6.3
COC(=O)C1=C(c2ccc(OC)c(OC)c2)C[C@@H]2CC[C@H]1N2C(=O)NCCNC(C)=O	2.8
N#CC1(NC(=O)Cn2cc(C(F)(F)F)ccc2=O)CCCC1	-9.8
Cc1cn(C2CC(OC(=O)C(C)C)C(CO)O2)c(=O)[nH]c1=O (stereo not given)	8.1
O=C(Nc1nnc(SCc2ccc(F)cc2)s1)C1=COCCO1	-2.3
Cc1sc2nc(CSC(C)C(=O)Nc3ccccn3)[nH]c(=O)c2c1C (stereo not given)	-5.0
Cc1cccc(-c2oc3ccc(-c4ccc5c(c4)OCO5)cc3c2C#Cc2cncn2C)c1	93.7
COCCN(C(=O)c1ccc(N2CCCC2=O)cc1)c1c(N)n(CC(C)C)c(=O)[nH]c1=O	3.8
Cc1ccc(C(=O)OC(C(=O)O)C(OC(=O)c2ccc(C)cc2)C(=O)O)cc1 (stereo not given)	-2.3
Cc1cccc(C(=O)NC(C)C(=O)NC(c2nc3ccccc3[nH]2)C(C)C)c1 (stereo not given)	2.4
CCN(C(=O)Cn1c(Cl)nc2c1c(=O)n(C)c(=O)n2C)C1CCCCC1	-3.6
O=C1C=C(c2cc3ccccc3o2)C[C@@H](c2ccc(F)cc2)C1	-3.1
CC(=O)Nc1ccc(NC(=O)CSc2nnc(-c3ccc4c(c3)OCO4)o2)cc1	-9.9
Cc1cnc(NC(=O)CCCNC(=O)c2ccc(Cl)cc2)s1	-1.4
Cc1ccc2c(c1)-n1c(nc3ccccc3c1=O)C(CC(C)C)NC2=O (stereo not given)	-2.7
CCCNC(=S)N1CCC(C(=O)c2ccc(Cl)cc2)CC1	1.4
CC1(C)C[C@@H](O)[C@]2(C)CC[C@]3(C)C(=CCC4[C@@]5(C)CC[C@H](O)[C@](C)(CO)C5CC[C@]43C)[C@@H]2C1 (stereo not given in full)	-5.7
CCC(Oc1ccccc1)C(=O)N1CCN(S(=O)(=O)c2ccccc2)CC1 (stereo not given)	2.9
CC(=O)NC(CC(=O)OCC(=O)c1ccc(NC(=O)CC(C)C)cc1)c1ccccc1 (stereo not given)	-4.7
C[C@@]12C(=O)N(Cc3ccco3)CC(=O)N1[C@H]1c3ccccc3OC[C@@H]1[C@@H]2c1ccccc1	-3.8
C=CC[C@H](CC(=O)N(CCO)Cc1ccccc1)C(=O)N[C@@H](COC(=O)[C@H](CC=C)CC(=O)OC(C)(C)C)Cc1c[nH]c2ccccc12	-3.3
Cc1ccc(S(=O)(=O)N2CCOCC2)cc1C(=O)OCC(=O)NCc1ccc2c(c1)OCO2	2.1
CCN(CC(=O)Nc1ccc(NC(C)=O)cc1)C(=O)CCCc1c[nH]c2ccccc12	3.1
CCC1CCCCN1C(=S)NC(=O)c1cc(Br)ccc1Cl (stereo not given)	53.4
CN(CC(=O)Nc1ccccc1Cl)C(=O)CCNC(=O)Nc1ccccc1	-2.4
C=CC[C@H](CC(=O)NCCO)C(=O)N[C@@H](COC(=O)[C@@H](CC=C)Cc1ccc(F)cc1)Cc1c[nH]c2ccccc12	-5.8
CCN1C(=O)[C@H]2[C@@H](c3ccc(-c4cc(C(C)=O)cs4)cc3)N3CCCC[C@@]3(C(=O)OC)[C@H]2C1=O	13.6
CN(CC(=O)Nc1c(Cl)cccc1Cl)C(=O)Cc1ccsc1	0.0
CC1Cc2ccccc2N1C(=O)CN(C)CC(=O)Nc1ccc(OC(F)(F)F)cc1 (stereo not given)	5.0
CC(=O)Nc1ccc(S(=O)(=O)N(C)CC(=O)OC2CCCCC2=O)cc1 (stereo not given)	-2.1
C[C@@H](O)[C@H]1O[C@]2(C)CCC[C@H]1O2	4.0
CCOC(=O)c1c(C)[nH]c(C(=O)COC(=O)c2cc(C)oc2C)c1C	-5.6
CCN(CC(=O)NCc1ccc(F)cc1)C(=O)c1cc2ccccc2o1	-2.5
Cc1cc(C)n(CC(=O)NNC(=O)c2ccc(OC(F)(F)F)cc2)n1	-3.5
COC(=O)c1ccccc1-c1c2ccc(=N)cc-2oc2cc(N)ccc12	39.5
CCc1ccc([C@H]2C(C(=O)O)=C[C@@H](CC3CCCC3)N2S(=O)(=O)c2ccc(C)cc2)cc1	-1.6
O=S(=O)(c1ccc(F)c(Cl)c1)N1CCN(C/C=C/c2ccccc2)CC1	1.8
COC(=O)C1=C(c2ccc(F)cc2OCc2ccccc2)C[C@@H]2CC[C@H]1N2C(=O)NCc1cccc(C(F)(F)F)c1	-3.7
O=C(Nc1cc(S(=O)(=O)Nc2ccccc2F)ccc1Cl)c1ccc(F)cc1F	6.3
COc1ccc([C@H]2CC(=O)C=C(c3ccccc3OC)C2)cc1OC	4.2
COc1ccc(-c2nn(-c3ccccc3)cc2C(=O)O)cc1N	0.3
O=C(CN1C(=O)NC(Cc2c[nH]c3ccccc23)C1=O)Nc1ccccc1Br (stereo not given)	2.6
COc1ccc(S(=O)(=O)N2CCCCC2)cc1NC(=O)CSc1nnc(C2CC2)n1C	-1.6
CCN(C(=O)CN1C(=O)NC(c2ccccc2)(c2ccc(C)c(C)c2)C1=O)C1CCCCC1 (stereo not given)	6.8
CCc1ccc(NC(=O)C(C)OC(=O)CN2C(=O)NC3(CCCC3)C2=O)cc1 (stereo not given)	46.4
O=c1oc(CCCO)cc2ccc(C#CC3(O)CCCCC3)cc12	1.3
O=C(NCc1ccco1)c1ccc(Cl)c(S(=O)(=O)N2CCCC2)c1	-1.9
CCOC(=O)[C@H]1[C@H]2COc3ccc(Cl)cc3[C@@H]2N2C(=O)c3cc(F)ccc3NC(=O)[C@@]12C	8.4

As entered above.
`O=c1oc(CCCO)cc2ccc(C#CC3(O)CCCCC3)cc12` @ Mtb bLac sens = 1.3
`CCc1ccc(NC(=O)C(C)OC(=O)CN2C(=O)NC3(CCCC3)C2=O)cc1` (stereo not given) @ Mtb bLac sens = 46.4
